# NPYLR7 ag – activates Aedes aegypti NPYLR7 receptor. HEK293T NPYLR7/Galpha15, GCaMP6s calcium fluorescence. activation, % at 10 µM. 270,000 tested, 0.15% active; in the data active = activation above about 40%;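 note: 0% = vehicle and 100% = reference agonist at the receptor; some compounds past the cut are filed as inactive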
# NPYLR7 ag max-min – further read-out of NPYLR7 ag, marked with its call; activation, %; measured here: Max-Min RFU normalised activation; some inactives read as strong as hits;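 span of the calcium signal over five minutes; 0% = vehicle and 100% = native peptide agonist; compound fluorescence can raise it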
# Active calls of the source: *; & = joins results of further samples. A portion of the library; rates above refer to the full screens.
nr	Structure	NPYLR7 ag	NPYLR7 ag max-min
1	O=C(CCNS(=O)(=O)c1ccc(Cl)cc1)NCC1(c2ccccc2)CC1	3.9	3.4
2	OC[C@@H]1CCCN1c1nccn2ccnc12	2.1	0.2
3	CCOC(=O)c1cccc(NC(=O)Cn2ccn3nc(-c4ccc(OC)c(OC)c4)cc3c2=O)c1	2.6	0.5
4	C=CCCC(=O)Nc1sc(C(C)C)cc1C(=O)OCC	-2.7	-6.4
5	COc1ccc(-c2nnc3ccc(OCCNC(=O)C4CC4)nn23)cc1OC	-5.6	-7.7
6	COc1cc(CCC(=O)NC2CCN(C(=O)C(C)C)CC2)cc(OC)c1	2.5	-1.0
7	Cc1ccccc1CN(C)C(=O)c1sc2nc3n(c(=O)c2c1C)CCC3	-3.8	-2.3
8	CC(C)OCc1cccc(NC(=O)NCCc2nc(N)no2)c1	6.4	-7.9
9	CCCN(Cc1ccc(C(O)(C=C(C)C)C=C(C)C)o1)Cc1ccccc1OC	-11.8	-6.5
10	O=C(O)c1cc(N2C(=O)C3CC=CCC3C2=O)ccc1Cl (stereo unspecified)	0.9	1.0
11	CCN=C(CC#N)c1ccc(Cl)cc1	1.2	0.2
12	O=C(Nc1cccc2ccc(-n3ccnc3)nc12)c1ccccc1C(F)(F)F	11.1	3.7

# The list goes on, overlapping the part above by 5 compounds.
nr	Structure	NPYLR7 ag	NPYLR7 ag max-min
8	CC(C)OCc1cccc(NC(=O)NCCc2nc(N)no2)c1	6.4	-7.9
9	CCCN(Cc1ccc(C(O)(C=C(C)C)C=C(C)C)o1)Cc1ccccc1OC	-11.8	-6.5
10	O=C(O)c1cc(N2C(=O)C3CC=CCC3C2=O)ccc1Cl (stereo unspecified)	0.9	1.0
11	CCN=C(CC#N)c1ccc(Cl)cc1	1.2	0.2
12	O=C(Nc1cccc2ccc(-n3ccnc3)nc12)c1ccccc1C(F)(F)F	11.1	3.7
13	O=C(Nc1ccccc1)NC1CN(Cc2ccccc2)CCC1CO (stereo unspecified)	11.5	7.7
14	COC(=O)CCC(=O)N1CCN(CC(OCc2ccc(C#N)cc2)c2cccc(N3CCCC3)c2)CC1 (stereo unspecified)	3.0	-1.9
15	COc1cccc(OC)c1C(=O)NCC1CCN(c2nc(Cc3ccc(Cl)cc3)ns2)CC1	-0.1	4.5
16	O=C(c1cccc2ccccc12)N(C(=O)N1CCCCC1)c1ccccc1	11.6	10.6
17	CC(SCC(=O)NCC(=O)NC(C)(C)C)c1nc2ccccc2[nH]1 (stereo unspecified)	1.3	1.6
18	CC1=NN(c2ccccc2)C(C2=C(C)CCCC2(C)C)C1 (stereo unspecified)	1.0	2.4
19	CC1c2cccn2CCN1Cc1nc2scc(-c3ccco3)c2c(=O)[nH]1 (stereo unspecified)	2.8	2.2
20	CC1CCN(S(=O)(=O)N2CCCC(c3cc4ccccc4[nH]3)C2)CC1 (stereo unspecified)	-1.9	-2.2
21	COc1cccc(-n2nnc3c(N4CCN(C(=O)CCC5CCCCC5)CC4)ncnc32)c1	-10.1	-15.5
22	O=C(c1cc(-c2cccs2)on1)N1CCOCC1	0.7	-0.6
23	Cc1cc(C)c(NC(=O)Cn2c(-c3nnc(C)o3)cc3ccccc32)c(C)c1	3.3	5.8
24	CC(NC(=O)c1ccc(Cl)c([N+](=O)[O-])c1)c1cc2ccccc2o1 (stereo unspecified)	1.6	2.1

nr	Structure	NPYLR7 ag	NPYLR7 ag max-min
25	CC[C@H]1C[C@@H](NC(=O)c2ccccc2)C[C@@H](c2nc(C)n3ccccc23)O1	-3.4	-5.0
26	CN1Cc2ccccc2CC1C(=O)N1CCc2c(c(C(=O)O)nn2CCO)C1 (stereo unspecified)	9.4	-0.6
27	COc1cc(-c2nc(CN(CCO)Cc3cccs3)c(C)o2)ccc1F	-3.0	-2.8
28	C=CCN1CC(c2nc3ccccc3n2CCC)CC1=O (stereo unspecified)	4.9	7.2
29	Cc1cc2ccccc2n1CCNC(=O)C1CC1	5.6	1.6
30	COc1ccc(-c2noc(CN(C)Cc3cnn(-c4cccc(OC)c4)c3)n2)cc1	-4.0	-5.8
31	COc1ccc(C2CC(c3ccccc3)=NN2C(=O)c2ccc(Cl)cc2)cc1 (stereo unspecified)	-5.9	-13.4
32	CCCn1nc2ccccc2c1[P+](N)(N1CCOCC1)N1CCOCC1	8.4	5.7
33	CC(C)NC(=O)Nc1ccc(N(C)C)c(CN(C(C)C(C)C)S(=O)(=O)c2cccc(Cl)c2)c1 (stereo unspecified)	0.7	8.0
34	O=C(Nc1cccnc1N1CCN(C(=O)c2cc(F)ccc2Cl)CC1)c1ccc2c(c1)OCO2	2.1	1.1
35	O=C(Nc1ccc(F)cc1)N1CCN(c2ncccn2)CC1	3.6	1.5
36	Cc1cc(C)c(NC(=O)CN(C)C(=O)c2cc3cnn(C(C)C)c3nc2C)c(C)c1	1.2	0.9

nr	Structure	NPYLR7 ag	NPYLR7 ag max-min
37	CCCC(=O)Nc1ccc(N2CCc3ccccc3C2)c(C(=O)NCCc2ccccc2)c1	18.6	24.1
38	CCc1nnc(-c2cc3ccccc3n2CC(=O)Nc2cc(C)cc(C)c2)o1	-3.9	-3.7
39	O=S(=O)(CCN1CCOc2ccccc21)Oc1ccccc1	6.5	6.5
40	C=CCn1c(=NC(=O)c2ccccc2S(C)(=O)=O)sc2cc(F)cc(F)c21	5.6	3.7
41	Cc1ccc(S(=O)(=O)NC(=O)C(C)C)cc1N(C)C	8.2&-0.1	3.4&0.5
42	CCC1CN(S(C)(=O)=O)CCC1NC(C)c1nc(C2CC2)no1 (stereo unspecified)	1.5	-0.3
43	CC1CN(c2cc(Cl)nc(SCC(=O)NCCc3ccccn3)n2)CCN1C(=O)c1cccc(F)c1 (stereo unspecified)	-4.3	-10.7
44	CCN(CC)S(=O)(=O)c1cc(C(=O)NCC(C)c2ccccc2)ccc1F (stereo unspecified)	-3.3	-3.3
45	O=C(c1ccc(F)cc1F)N1CCN(c2nccc(-c3ccco3)n2)CC1	-5.9	-8.0
46	CCCCCCCN=Cc1c(C)[nH]n(-c2ccc([N+](=O)[O-])cc2)c1=O	-11.1	-18.6
47	COc1cc(OC)cc(-c2nnc(SCc3ccc(Br)cc3F)o2)c1	0.5	3.0
48	COc1cc2c(cc1OC)CN(S(=O)(=O)c1ccc(OC)c(N3CCN(C(=O)c4ccccc4OC(F)(F)F)CC3)c1)CC2	25.4	7.3

nr	Structure	NPYLR7 ag	NPYLR7 ag max-min
49	O=C(c1ccsc1)N1CCC(n2c(Cc3ccccc3)nc3ccccc32)CC1	2.2	12.2
50	Cc1cc(C)cc(N=c2oc3c(C)ncc(CO)c3cc2C(=O)Nc2cccc3ccccc23)c1	-5.9	-10.8
51	CNc1nc2cnc(Nc3cccc(F)c3)cc2n1CCN1CCOCC1	10.1	-3.3
52	COc1cc(OC)c(NC(=O)Cc2ccc(F)cc2)cc1Cl	-0.8	-1.8
53	CCOC(=O)c1c(C)n(-c2ccc(Br)cc2)c2ccc(OC)cc12	3.5	4.2
54	COc1ccccc1C1CCCN1C(=O)CN1C(=O)C(Oc2ccccc2)C1c1cccnc1 (stereo unspecified)	9.6	9.4
55	O=c1c2[nH]cnc2n(-c2ccc(F)cc2F)c(=O)n1Cc1ccccc1	26.8	15.1
56	Fc1ccc(Cn2c(SCc3cc4c(cc3Cl)OCO4)nc3ccccc32)cc1	-1.2	-5.3
57	Fc1cccc(NC2=NCCC2)c1	3.5	1.9
58	COc1ccc(-c2nnc(-c3cc4ccccc4oc3=O)o2)cc1	-9.6	-11.8
59	COC(=O)c1cc(Cl)c2c(c1)CC(CNC(=O)c1ccccc1Br)O2 (stereo unspecified)	11.0	7.1
60	COC(C(=O)NCc1ccc(C(C)(C)C)cc1)c1ccccc1 (stereo unspecified)	-17.9	-23.6

nr	Structure	NPYLR7 ag	NPYLR7 ag max-min
61	O=C(Cn1ncn2c(cc3sccc32)c1=O)NC1CCCCCC1	2.9	0.8
62	Cc1ccc(F)cc1NC(=O)CNCc1cn[nH]c1-c1ccc(F)cc1	-3.7	-4.3
63	CC(C)(C(=O)N1CCC1(C)C(=O)NS(=O)(=O)c1ccccc1Cl)c1ccccc1 (stereo unspecified)	4.3	1.5
64	CCN(Cc1cc(Br)ccc1F)C(=O)c1cc(C(C)C)[nH]n1	-2.0	19.4
65	CC1CCN(c2nc3ncc4c(c3c(=O)[nH]2)CC(C)(C)CC4=O)CC1	1.3	19.7
66	Cc1cc(-c2nn(-c3ccccc3F)cc2CNCCN2CCCCC2=O)c(C)s1	14.4	4.2
67	COc1cccc(Cc2nc3c(c(N4CCOCC4)n2)CN(C(=O)Nc2cccc(C(F)(F)F)c2)CC3)c1	-4.0	0.0
68	Cc1cccc(C(=O)NNC(=O)COc2ccc(Cl)cc2)c1	-0.2	-4.0
69	CCCCn1c(O)c(C=Nc2cccc(CC)c2)c(C)c(C#N)c1=O	4.9	2.9
70	O=S(=O)(c1ccc(N2CCCC2c2ccc3c(c2)OCCO3)nc1)N1CCCC1 (stereo unspecified)	0.1	1.1
71	COc1ccc(-c2nnc3ccc(OCCNC(=O)C4CCCC4)nn23)cc1	-10.3	-13.1
72	Cc1cc(C)c(Cn2ccnc2CN(Cc2cccnc2)C(=O)c2ccccc2F)c(C)c1	27.5	36.9

nr	Structure	NPYLR7 ag	NPYLR7 ag max-min
73	COc1ccc2oc(=O)c(C(=O)Nc3ccccc3F)cc2c1	6.7	-3.2
74	CC(=O)c1sc(NC(=O)c2ccccc2I)nc1-c1ccccc1	-6.4	-9.0
75	NC1CCCN(C(=O)c2cccc(-c3ccc(F)cc3)c2)CC1 (stereo unspecified)	19.3	19.9
76	CCC1SC(c2cccc(F)c2)N(CCN2CCNCC2)C1=O (stereo unspecified)	-2.3	-8.2
77	COC(=O)CCNC(=O)c1nn(CC2CC2)c2c1CN(C(=O)c1sccc1Cl)CC2	16.9	2.4
78	Cn1cc(CCC(=O)Nc2c(F)cccc2Oc2ccccc2)cn1	12.7	6.6
79	COCC(=O)NC1CC(=O)N(Cc2ccccc2Cl)C1 (stereo unspecified)	3.5	1.7
80	c1cncc(COC2CCN(Cc3ccc(-n4ccnc4)cc3)CC2)c1	-17.1	-19.3
81	CC(C)(CNC1=NCCCN1)c1cccc(Br)c1	7.8	3.8
82	Cc1ccc(-n2nnnc2-c2cnc(C3CC3)nc2C(F)(F)F)cc1	7.0	1.8
83	COc1ccc(NC(=O)Cn2c(=O)n(-c3ccc(F)cc3)c(=O)c3ccccc32)cc1OC	3.2	16.8
84	CC(C)Cc1cc(C(=O)N2CCc3c(nc(N(C)C)[nH]c3=O)C2)on1	-0.7	-7.4

nr	Structure	NPYLR7 ag	NPYLR7 ag max-min
85	Cn1ccnc1C(NC(=O)c1nc2ccccc2[nH]c1=O)C1CC1 (stereo unspecified)	3.9	-0.2
86	CCCn1nc(C(=O)N2CCN(S(=O)(=O)c3ccc4c(c3)CCC4)CC2)ccc1=O	0.1	1.7
87	CCOc1ccc2nc(N3CCCC(C(=O)NCCCn4cccn4)C3)nc(C)c2c1 (stereo unspecified)	-0.4	-4.9
88	c1ccc(-c2nnc(-c3ccccn3)n2-c2ccccn2)nc1	-0.3	-1.6
89	COc1ccc(-c2csc(NC(=O)c3ccc(OCc4noc(C)n4)cc3)n2)cc1	0.3	-0.8
90	COc1ccc(-c2nc3scc(CCNS(=O)(=O)c4ccc(OC)c(C)c4)n3n2)cc1	-15.5	-12.1
91	CC(C)C1C(=O)NCCN1C(=O)c1cccc2ncccc12 (stereo unspecified)	-3.1	-3.7
92	CCCNc1nc(SCC)nc2c1cnn2CCNC(=O)c1ccc(F)cc1	-0.6	-3.0
93	Nc1ccc(SC2=C(Nc3ccccc3)C(=O)N(c3ccccc3)C2=O)cc1	20.6	7.8
94	Cc1ncsc1C(=O)N1CCCN(Cc2nc3ccccc3s2)CC1	8.4	7.0
95	COc1ccc2oc(C(=O)NC(C)c3ccccn3)c(C)c2c1 (stereo unspecified)	4.1	0.8
96	Cc1ccc(F)c(S(=O)(=O)Nc2cc(F)cc(C(=O)O)c2F)c1	7.5	11.8

nr	Structure	NPYLR7 ag	NPYLR7 ag max-min
97	CCN(C(=O)NCc1ccc(N(C)C)cc1)C1CCCCC1	10.9&-3.1	7.9&-4.7
98	CCC(NC(=O)c1ccccc1N)C(=O)c1ccccc1 (stereo unspecified)	-7.6	-8.7
99	O=C1CSC(c2ccc(OC(F)F)cc2)N1c1ccccc1 (stereo unspecified)	-4.3	-12.7
100	O=C(COc1ccc2ccc(=O)oc2c1)NC1CC1	16.2	9.2
101	COc1cccc(Cn2cccc2CN(C(=O)CN(CC(C)C)C(=O)c2cccc(C(F)(F)F)c2)C(C)(C)C)c1	-4.3	-0.8
102	CCOc1cc([N+](=O)[O-])c(C(=O)Nc2cnc3c(cnn3C(C)C)c2)cc1OC	-3.4	-4.3
103	CCCCCCNc1ccc(NC(=O)c2ccc(C3CCC(CCCCC)CC3)cc2)c2c1C(=O)c1ccccc1C2=O (stereo unspecified)	8.9	8.8
104	O=[N+]([O-])c1cc(S(=O)(=O)N2CCCC2)ccc1NN=Cc1c[nH]c2ccc(Br)cc12	-13.4	-19.2
105	O=c1[nH]c2n[nH]c(=S)n2c2c1CCCC2	-2.3	-3.3
106	O=c1c2ccccc2nnn1CN1CCCC(c2nc3ccccc3s2)C1 (stereo unspecified)	3.9	9.7
107	CCCNC(=O)C1(C)CCCN(Cc2c3ccccc3nn2C)C1 (stereo unspecified)	-1.1	-2.2
108	OC1COC(n2ccc3ccccc32)C(O)C1O (stereo unspecified)	3.8	1.3

nr	Structure	NPYLR7 ag	NPYLR7 ag max-min
109	O=C1CN(S(=O)(=O)NCc2ccccc2)CCN1C1CCCC1	1.6	0.5
110	Cc1c(C)n2c3c(=O)n(CC(=O)c4ccccc4)c(=O)n(C)c3nc2n1Cc1ccco1	-10.7	-9.5
111	CCC(C(=O)NC(C)c1ccccc1)n1c(=O)n(-c2cccc(C)c2)c(=O)c2ccc(Cl)cc21 (stereo unspecified)	3.7	5.6
112	O=C(NC(Cc1ccccc1)C(=O)N1CCOCC1)C1CC(c2cccc(F)c2)=NO1 (stereo unspecified)	-0.3	13.2
113	CN(CCCC1CCCC1)C(=O)c1cccs1	-0.5	-0.9
114	CCc1cc(CN(C)C(=O)c2cn[nH]n2)on1	1.0	0.7
115	O=C(CSc1nnnn1-c1ccccc1)NCc1ccccc1	-4.3	-6.1
116	CC1(C)CC(NC(=O)c2cn(CCCc3ccccc3)nn2)CCO1 (stereo unspecified)	8.5	9.5

# Screens as filed in PubChem.
